Prx2 Sm inh = inhibitors of Schistosoma mansoni peroxiredoxin 2; S. mansoni Prx2 activity coupled to TGR/GSH (TGR is thioredoxin glutathione reductase), NADPH fluorescence loss, qHTS; some inactives read as strong as hits; Potency, µM; 0.07% of 65,000 active; AID 448; active means full or partial inhibition curve with a strong effect at the top dose; inconclusive means weaker partial or single-point curve; inactive means no accepted curve; also: series up to 57 µM; many of its hits are not listed in these tables
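Prx2 activity was followed as the loss of NADPH fluorescence (ex 365/em 450 nm), read every 30 sec for 8 min after H2O2 start. The enzyme mix (50 nM Prx2, 25 nM TGR, GSH, NADPH; pH 7.4 phosphate buffer) was incubated with compound for 15 min at room temperature first.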
LT uptake inh = blocks cellular internalization of anthrax lethal toxin; Cells, anthrax lethal toxin internalization, FRET ratio (460/530); Potency, µM (doses to about 40 µM), without a hit: at the top dose activity change, negative = inhibition, hits mostly inhibitors; 0.67% of 70,000 active; AID 912; active = well fitted falling ratio curve with the 530 nm signal flat; inconclusive = other ratio curves, or a change in one channel alone; inactive = flat curves in the ratio and both channels; the % refers to the ratio; also: % is scaled to controls: 0 for no effect and ±100 for the full control effect; nearly all actives have a fitted effect of over 50% in size; tested in ME-180 cells; beta-lactamase reporter
Numbers without * were called inactive; ? = inconclusive; . = not tested or not shown; [ ] = dose if it differs, or a comment. Potency is read from the fitted curve at half-maximal effect. The list is partial (hit frequency here may not be typical).

#	Compound	LT uptake inh	Prx2 Sm inh
1	CC1CCN(C(=O)Cn2cc(C(=O)c3ccco3)c3ccccc32)CC1	5%	>57
2	COC(=O)c1cn(NC(=O)c2cccnc2)c(=O)c2ccccc12	-3%	>57
3	Cc1ccc(C)n1-c1ccc2c(c1)COC2=O	3%	>57
4	Cn1nnnc1SCC(=O)N1CCN(c2ccc(Cl)cc2)CC1	1%	>57
5	O=C(c1cccc(S(=O)(=O)N2CCOCC2)c1)N1CCCCCC1	?	>57
6	CCOC(=O)c1ccc2c(c1)nc(C1CCN(S(=O)(=O)c3cccs3)CC1)n2CC	-7%	>57
7	CC(=O)NCN1CCN(CNC(C)=O)CC1	3%	.
8	Cc1c(NC(=O)c2cccc(S(=O)(=O)N3CCOCC3)c2)c(=O)n(-c2ccccc2)n1C	-8%	>57
9	Cc1oc2c(c(=O)c1C)C(=O)CC(c1ccccc1)C2 (centres undefined)	6%	.
10	COc1ccc(OC)c(N2C(=O)[C@@H]3C(c4ccccc4Cl)=NO[C@@H]3C2=O)c1	.	>57
11	COc1cccc(C2=NOC(C(=O)N3CCOCC3)C2)c1 (centres undefined)	-4%	>57
12	CCOC(=O)c1c(C)[nH]c(C(=O)CN2C(=O)NC(CC)(c3ccccc3)C2=O)c1C (centres undefined)	-13%	>57

Molecules from the list above containing an aryl methoxy group:
#	Compound	LT uptake inh	Prx2 Sm inh
10	COc1ccc(OC)c(N2C(=O)[C@@H]3C(c4ccccc4Cl)=NO[C@@H]3C2=O)c1	.	>57
11	COc1cccc(C2=NOC(C(=O)N3CCOCC3)C2)c1 (centres undefined)	-4%	>57

Next section:
#	Compound	LT uptake inh	Prx2 Sm inh
13	O=c1n(Cc2cc3c(cc2Cl)OCO3)c(=O)n2n1CC[C@H]1/C(=N\OC[C@@H](O)COCc3ccco3)[C@H]3O[C@@H]3[C@@H](O)[C@@H]12	5%[8 µM]	.
14	Cc1cc(C)cc(OCC(=O)N(Cc2cccs2)C2CCS(=O)(=O)C2)c1 (centres undefined)	.	>57
15	COC(=O)c1ccccc1NC(=O)c1ccc(-c2ccccc2F)o1	1%	>57
16	CC(=O)OC[C@@H]1O[C@@H](O/N=C2/C[C@@H](O)[C@@H](O)[C@@H]3[C@@H]4C(=O)N([C@@H](C)c5ccccc5)C(=O)[C@H]4CC[C@@H]23)[C@H](OC(C)=O)[C@H](OC(C)=O)[C@@H]1OC(C)=O	?	.
17	COc1cccc(NC(=O)CNC(C)CCC(C)C)c1 (centres undefined)	1%	>57
18	Cc1noc(C)c1C(=O)N1CCC[C@@]2(CCN(C(=O)Nc3cccc(F)c3)C2)C1	?	>57
19	O=C(O)C1CCN(S(=O)(=O)N2CCOCC2)CC1	3%	>57
20	Cn1c(=O)cc(SCC(=O)N2CCCC2)c2ccc(Cl)cc21	14%	>57
21	O=C(NCCN1CCOCC1)C1CCN(c2nc3ccccc3o2)CC1	?	>57
22	COCCOC(=O)C1=C(C)NC(=O)NC1c1ccc(Cl)cc1 (centres undefined)	4%	.
23	COc1ccc2c(Cl)c(C(=O)NC3CCS(=O)(=O)C3)sc2c1 (centres undefined)	17%	>57
24	COC(=O)c1ccc2[nH]c(C)cc(=O)c2c1	4%	>57
25	CC1CCCC(C2(O)C(=O)Nc3ccccc32)C1=O (centres undefined)	-5%	>57
26	Cc1cc(Nc2ccc(F)cc2C)n2nc(C)nc2n1	-2%	>57
27	COc1ccccc1N1CCN(C/C=C/c2ccc(N(C)C)cc2)CC1	-15%	>57
28	COc1ccccc1NS(=O)(=O)c1ccc(OC)c(OC)c1	3%	>57
29	COc1cccc(C(=O)Nc2cc(C)c3c(=O)oc4ccccc4c3n2)c1	7%	>57
30	CC(NO)C(C)(C)NO (centres undefined)	-8%	>57
31	Cn1c(-c2ccc(F)cc2)cnc1NCc1ccc(C#N)cc1	?	>57
32	Cc1ccccc1NC(=O)c1ccc(F)c(S(=O)(=O)N2CCN(c3ccccn3)CC2)c1	.	>57
33	CC(=O)COc1ccc2c3c(c(=O)oc2c1)CCCC3	-16%	>57
34	CCCCSCc1nc2nc(Cl)c(Cl)nc2[nH]1	-7%[8 µM]	>57
35	C=CCn1c(=O)c2ccccc2n2c(Sc3nnnn3-c3ccccc3)nnc12	-1%	>57
36	COc1ccc(N(CC(=O)NC2CCCC2)C(=O)Cn2nnc(-c3ccc(F)cc3)n2)cc1OC	-14%	>57
37	COc1ccc(S(=O)(=O)Cc2ccc(C(=O)NC3CCCC3)o2)cc1	-9%	>57
38	O=C(O)Cc1nc2nc3c(c(=O)n2[nH]1)CCCC3	6%	>57
39	N#Cc1nc(Cc2cccc3ccccc23)oc1N1CCCCC1	?	>57
40	O=c1[nH]c(N2CCc3ccccc3C2)nc2c1CCC2	5%	>57
41	CN1CC[C@@]2(CCCN(C(=O)c3ccco3)C2)C1	-1%	>57
42	O=C(O)/C=C1\NC(=O)c2ccccc21	3%	>57
43	Cc1cc(C)nc(Nc2ncc(O)n2-c2ccc(C)c(Cl)c2)n1	?	>57
44	Clc1ccccc1-c1nc(NCCN2CCOCC2)c2ccccc2n1	3%	>57
45	Cc1occc1C(=O)Nc1ccc2c(c1)OCO2	16%	>57
46	COCCNC(=O)C1CCC(Cn2c(=S)[nH]c3ccccc3c2=O)CC1 (centres undefined)	-3%	>57
47	S=c1[nH]nc(-c2cccnc2)o1	?	>57
48	O=C(OCC(=O)N1CCN(c2ccccc2)CC1)c1ccccn1	3%	>57
49	CC(=O)c1cccc(NC(=O)N2CCCC2C(=O)Nc2c(C)cccc2C)c1 (centres undefined)	-2%	>57
50	O=C(c1ccccc1)N1CCN(Cc2c[nH]c3ccccc23)CC1	-4%	>57
51	C=CCn1c(CCCNC(=O)C(C)(C)C)nc2ccccc21	2%	>57
52	Cc1ccc(C)c(NS(=O)(=O)c2cc(Br)cnc2N)c1	-3%	>57
53	O=C(Nc1ccccc1)N1CCSCC1	7%	>57
54	Cc1ccc(CNC(=O)c2cn(C3CCCC3)c(=O)c3c2c2ccccc2n3C)o1	5%	>57
55	CCOC(=O)c1c(C)n(C)c2ccc(OCC(O)CN3CCC(C)CC3)cc12 (centres undefined)	?	>57
56	COc1cc(OC)c(Cl)cc1N	-4%	>57
57	O=C(c1ccc(N2CCNCC2)cc1)c1cccnc1	5%	>57
58	O=C(CC(c1ccccc1)c1ccccc1O)NCCN1CCOCC1 (centres undefined)	2%	>57
59	COCCCNC(=O)c1c(F)c(F)c(F)c(F)c1F	-6%	.
60	O=C1C(Cl)=C(Sc2nnc3c4ccccc4c4ccccc4c3n2)C(=O)c2ccccc21	-5%[8 µM]	>57
61	COc1ccc(CC(=O)Nc2ccc(OC)c(NC(=O)c3ccco3)c2)cc1	1%	>57
62	O=C(Nc1ccccc1N1CCN(c2ccc(F)cc2)CC1)C1CCCCC1	1%	>57
63	c1ccc(CSc2nnc(-c3cccs3)o2)cc1	?	>57
64	CC(=O)N(CN1C(=O)C2CC=CCC2C1=O)c1cccc(Cl)c1 (centres undefined)	-8%	>57
65	COC(=O)c1cn(NC(=O)C2CCCCC2)c(=O)c2ccccc12	14%	>57
66	CC1NC(=O)NC1CCCCCC(=O)NCCc1ccccc1 (centres undefined)	0%	>57
67	N#Cc1nc(COc2ccccc2Cl)oc1N1CCCCCC1	-22%	>57
68	COc1ccc(-c2nn(-c3ccccc3)cc2C(=O)NCCCn2ccnc2)cc1	-3%	>57
69	Cc1nc(C)c(-c2csc(NCc3ccco3)n2)s1	-2%	>57
70	O=C(NCc1ccccc1)C(c1cccs1)N(C(=O)c1csnn1)C1CC1 (centres undefined)	-13%	>57
71	Cc1ccc2c(c1)cc(CN(Cc1ccco1)S(=O)(=O)c1ccccc1)c1nnnn12	-10%	>57
72	CCOC(=O)c1c(C)c(C(=O)NC2CCCCCC2)c(C)n1C	14%	>57

More records follow.
#	Compound	LT uptake inh	Prx2 Sm inh
73	CC(C)(NO)/C(=N/O)c1cccs1	1%	>57
74	O=C(CCn1cnc2ccccc2c1=O)Nc1ccc(S(=O)(=O)N2CCCCC2)cc1	?	>57
75	Cc1cc2ncc(C(=O)Nc3ccccc3)c(C)n2n1	6%	>57
76	COCCn1c(Cc2ccccc2)nnc1SCC(=O)N(C)C	-3%	>57
77	O=C(Cc1cccs1)Nc1nnc(SCC(=O)NC2CCCCC2)s1	3%	>57
78	CCCCCCn1c(SCC(=O)c2ccccc2)nc2c1c(=O)[nH]c(=O)n2C	-17%	>57
79	COc1cccc(NC(=O)C2CCCN2C(=O)Nc2cccc(F)c2)c1 (centres undefined)	-6%	>57
80	O=C1[C@@H]2[C@H]3[C@H](O)[C@H](O)C/C(=N/OCc4ccccc4)[C@H]3CC[C@H]2C(=O)N1c1ccc(F)cc1F	6%[1.6 µM]	.
81	COc1ccccc1N1CCN(c2cc(C)nc3nc(C)nn23)CC1	-7%	>57
82	CC1=NN(c2ccc(S(=O)(=O)O)cc2C)C(=[OH+])[C@H]1N=Nc1cc(S(=O)(=O)O)ccc1C(=O)O.O.[Cr]	1%[8 µM]	>57
83	O=C(Nc1nc(-c2ccncc2)cs1)C1COc2ccccc2O1 (centres undefined)	?	>57
84	CC1CCN(CCCNC(=O)c2coc3nc4ccccc4nc23)CC1	8%	>57
85	O=C(COC(=O)c1cc[n+]([O-])cc1)Nc1ccc2c(c1)OCCO2	-1%	>57
86	CCOc1ccc(N2C(=O)CC(N3CCN(C(=O)CN4CCCC4)CC3)C2=O)cc1 (centres undefined)	16%	.
87	CN1C(c2ccc(F)cc2)=CS/C1=C(\C#N)c1nnc2n1-c1ccccc1SC2	-5%	>57
88	O=C(O)C1CCN(c2ncnc3ccc(-c4ccccc4C(F)(F)F)cc23)CC1	-4%	>57
89	Cc1c(Nc2cc(=O)oc3ccccc23)c(=O)n(-c2ccccc2)n1C	17%	>57
90	Cc1ccc2[nH]c(=O)c(CN(Cc3cccnc3)Cc3nnnn3CCN3CCOCC3)cc2c1	-2%	>57
91	CCCCOC(=O)Cn1c(=O)c2c(nc(Br)n2Cc2ccccc2)n(C)c1=O	?	>57
92	COC(=O)c1ccc(CSc2nc3ccccc3c(=O)n2-c2cccc(OC)c2)o1	4%	>57
93	N#CC1=C(N)Oc2c(sc3ccccc23)C1c1ccco1 (centres undefined)	?	.
94	COc1ccc(NC(=O)CSc2nnc(CNC(=O)COc3ccc(Cl)cc3)o2)c(OC)c1	-1%	>57
95	O=c1ccc2cc(S(=O)(=O)Nc3ccc(F)cc3)ccc2o1	-5%	>57
96	CC(=O)c1ccc(OCC(O)CN2CCN(c3ccccn3)CC2)cc1 (centres undefined)	1%	>57
97	O=C(Nc1ccc(N2CCOCC2)cc1)c1cnsn1	-20%	>57

Entries listed so far that have a Cl atom:
#	Compound	LT uptake inh	Prx2 Sm inh
4	Cn1nnnc1SCC(=O)N1CCN(c2ccc(Cl)cc2)CC1	1%	>57
10	COc1ccc(OC)c(N2C(=O)[C@@H]3C(c4ccccc4Cl)=NO[C@@H]3C2=O)c1	.	>57
13	O=c1n(Cc2cc3c(cc2Cl)OCO3)c(=O)n2n1CC[C@H]1/C(=N\OC[C@@H](O)COCc3ccco3)[C@H]3O[C@@H]3[C@@H](O)[C@@H]12	5%[8 µM]	.
20	Cn1c(=O)cc(SCC(=O)N2CCCC2)c2ccc(Cl)cc21	14%	>57
22	COCCOC(=O)C1=C(C)NC(=O)NC1c1ccc(Cl)cc1 (centres undefined)	4%	.
23	COc1ccc2c(Cl)c(C(=O)NC3CCS(=O)(=O)C3)sc2c1 (centres undefined)	17%	>57
34	CCCCSCc1nc2nc(Cl)c(Cl)nc2[nH]1	-7%[8 µM]	>57
43	Cc1cc(C)nc(Nc2ncc(O)n2-c2ccc(C)c(Cl)c2)n1	?	>57
44	Clc1ccccc1-c1nc(NCCN2CCOCC2)c2ccccc2n1	3%	>57
56	COc1cc(OC)c(Cl)cc1N	-4%	>57
60	O=C1C(Cl)=C(Sc2nnc3c4ccccc4c4ccccc4c3n2)C(=O)c2ccccc21	-5%[8 µM]	>57
64	CC(=O)N(CN1C(=O)C2CC=CCC2C1=O)c1cccc(Cl)c1 (centres undefined)	-8%	>57
67	N#Cc1nc(COc2ccccc2Cl)oc1N1CCCCCC1	-22%	>57
94	COc1ccc(NC(=O)CSc2nnc(CNC(=O)COc3ccc(Cl)cc3)o2)c(OC)c1	-1%	>57

Screens deposited in PubChem by National Center for Advancing Translational Sciences (NCATS).
